High-throughput results: PubChem BioAssay, Center for Chemical Genomics, University of Michigan
HIV TAR-Tat = HIV-1 TAR-Tat binding disruption; HIV-1 TAR RNA, Tat peptide displacement FRET; stronger effect = higher value; z-score (test concentration not listed); hit rate 0.6% among 100,000; AID 1259389;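 further: score is relative to mean and SD of negative controls; some compounds called inactive have numbers as strong as hits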
CDC25B CDK2 inh = human CDC25B-CDK2/CyclinA binding inhibition; P30305+P24941; HTRF CDC25B-CDK2/CyclinA binding, anti-His/anti-Flag; stronger effect = higher value; z-score (test concentration not listed); hit rate 0.72% among 94,000; AID 1259370;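 further: score is relative to mean and SD of negative controls; strong numbers were not always called active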
Active calls of the source: *; / = not tested or not shown.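 How the source made its calls: active means z-score from 3 up in half or more of its runs; inactive means the rest.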

Molecule | HIV TAR-Tat | CDC25B CDK2 inh
Cc1noc(/C=C/c2cccs2)c1S(=O)(=O)N1CCCC(C(=O)Nc2nccs2)C1 (stereo not drawn) | -0.05 | -0.41
O=C(c1ccco1)N1CCN(C(=O)c2cccn3c(=O)c4c5c(sc4nc23)CCCC5)CC1 | / | -2
Cc1ccc(NS(=O)(=O)c2c(C)nc3sc(C)cn3c2=O)c(C)c1 | -0.76 | /
c1ccc2c(NCCCNc3ncnc4ccccc34)ncnc2c1 | / | -0.94
Cc1cc(C(=O)O/N=C(\N)c2cc(C)on2)no1 | / | -0.41
Cc1[nH]nc(-c2ccc(S(=O)(=O)NCCN3CCOCC3)s2)c1C | -1.7 | /
Cc1ccc(-c2nsc(NC(=O)c3ccc(Br)cc3)n2)s1 | 0.3 | -0.79
O=C(c1ccc(Cl)cc1)c1cccs1 | / | -1.4
Cc1c(C(=O)O)oc2ccc(S(=O)(=O)N3CCN(c4ccc(F)cc4)CC3)cc12 | / | -2.6
Cc1cc(-c2ccc(C)c(S(=O)(=O)Nc3ccc(Cl)cn3)c2)on1 | 2.1 | /
Cc1ncc(-c2ccc(S(=O)(=O)NC3CCCCC3)cc2)o1 | 0.4 | /
Cc1ccc2nsnc2c1NC(=O)c1cccc2ccccc12 | / | -4.8
CCN(/C=C/c1nnnn1-c1ccc(Br)cc1)CC | / | -0.57
S=C1SCN(Cc2cccnc2)CN1Cc1cccnc1 | / | -0.8
O=C(Nc1cccc(Cl)c1)C1CCN(c2ccccc2)C1=O (stereo not drawn) | 0.92 | /
COc1ccc(OC)c(-c2nc3c(c(=O)[nH]2)Cc2ccccc2O3)c1 | 2.3 | -2.9
NC(=S)N/N=C/c1ccc2c(c1)OCO2 | / | -0.62
c1ccc(-c2cc(-c3csc(-c4ccc5c(c4)OCCO5)n3)on2)cc1 | / | -2.1
Cc1noc(NS(=O)(=O)c2ccc(NC(=O)CSc3nc4c(cc3C#N)CCC4)cc2)c1C | / | -1.4
CCOc1ccc(OCC)c(NS(=O)(=O)c2c(C)nc3sccn3c2=O)c1 | 0.03 | /
Cc1ccc2ncnc(NC(CC(C)C)C(=O)O)c2c1 (stereo not drawn) | 1.1 | -1.3
CCN(c1ccccc1)S(=O)(=O)c1ccc(CN2C(=O)c3cccnc3C2=O)s1 | -0.01 | /
COc1ccc(-c2cc(-c3nc(-c4cccnc4)no3)[nH]n2)c(OC)c1 | 1.1 | /
O=C(CSc1nc(=O)n(-c2ccc(Cl)cc2)c2c1CCC2)c1ccccc1 | 0 | -2.4

The closing 7 records of the section above open the next one.
Molecule | HIV TAR-Tat | CDC25B CDK2 inh
c1ccc(-c2cc(-c3csc(-c4ccc5c(c4)OCCO5)n3)on2)cc1 | / | -2.1
Cc1noc(NS(=O)(=O)c2ccc(NC(=O)CSc3nc4c(cc3C#N)CCC4)cc2)c1C | / | -1.4
CCOc1ccc(OCC)c(NS(=O)(=O)c2c(C)nc3sccn3c2=O)c1 | 0.03 | /
Cc1ccc2ncnc(NC(CC(C)C)C(=O)O)c2c1 (stereo not drawn) | 1.1 | -1.3
CCN(c1ccccc1)S(=O)(=O)c1ccc(CN2C(=O)c3cccnc3C2=O)s1 | -0.01 | /
COc1ccc(-c2cc(-c3nc(-c4cccnc4)no3)[nH]n2)c(OC)c1 | 1.1 | /
O=C(CSc1nc(=O)n(-c2ccc(Cl)cc2)c2c1CCC2)c1ccccc1 | 0 | -2.4
Cc1ccnc(NC(=O)CCS(=O)(=O)c2ccc3c(c2)NC(=O)CS3)c1 | -13 | /
COc1ccc(CCNc2oc(/C=C/c3cccs3)nc2C#N)cc1OC | -0.04 | -0.53
COc1cc(C2/C(=C(\O)c3ccc(F)cc3)C(=O)C(=O)N2c2nncs2)ccc1O (stereo not drawn) | 1.3 | -1.7
CCN1CCN(C(=O)CN2C(=O)c3cccc4cccc2c34)CC1 | -1 | 0.39
O=C(CN1N=NC2C(=O)N(c3ccc(F)c(Cl)c3)C(=O)C21)NCc1ccc2c(c1)OCO2 (stereo not drawn) | 0.9 | /
Cc1sc2c(c1C)CSC(C(=O)Nc1ccc(F)cc1F)=C2 | -3.4 | /
O=C(CC1SCCNC1=O)Nc1ccc(Br)cc1 (stereo not drawn) | -0.01 | -0.48
COc1ccccc1C1NC(=O)C(=O)/C1=C(\O)c1ccc(Br)cc1 (stereo not drawn) | 1 | -0.67
O=C(O)c1ccc(-c2ccccc2)s1 | 0.85 | -3.3
CC1CCN(S(=O)(=O)c2ccc3c(c2)CCN3C(=O)CCCC(=O)O)CC1 | -0.42 | 0.15
Cc1nc2ncnn2c(Nc2cccc3c2CCCC3)c1C | 2.8 | /
O=C(O)COCC(=O)Nc1cccnc1 | / | -1.2
CCOc1ccccc1-c1nnc2n1N=C(c1ccccc1)CS2 | 0.82 | 1.8
COc1cccc2c1OC(CC(C)C)N1N=C(c3ccccc3O)CC21 (stereo not drawn) | -0.33 | 0.01
CN(Cc1cc2ccccc2[nH]c1=O)C(=O)c1cccc(Cl)c1 | 0.67 | -0.77
O=c1[nH]c2ccc(NCc3ccc(-c4cccc(Cl)c4)o3)cc2[nH]1 | 0.36 | -1.9
CN(C)c1ccc(CNS(=O)(=O)c2ccc(-c3cc(C(F)(F)F)on3)s2)cc1 | 1.7 | /
Cc1ccc(S(=O)(=O)N2CCCc3cc(NS(=O)(=O)c4cccs4)ccc32)cc1 | 0.23 | /
Cc1nc2c(c(SCc3ccccc3C)n1)CCC2 | 1.1 | -1.3
COc1ccc(NS(=O)(=O)c2ccc(/C=C/c3onc(C)c3[N+](=O)[O-])s2)cc1 | 0.93 | /
CN1C(=O)c2ccccc2C(C(=O)N2CCN(c3ccccc3F)CC2)C1c1cn(C)c2ccccc12 (stereo not drawn) | / | -3.5
O=C(NC1COc2ccccc2C1)N1CCN(c2cccc(Cl)c2)CC1 (stereo not drawn) | 0.93 | /
N#Cc1nc(/C=C/c2ccc(Cl)cc2)oc1N1CCN(C(=O)c2cccc(F)c2)CC1 | 0.25 | -2.5
O=C(CSc1nccc2ccccc12)N1CCN(c2ccccn2)CC1 | / | -0.45
Nc1nc2nc3c(c(-c4ccccc4)c2c(=O)[nH]1)C(=O)c1ccccc1-3 | 2.6 | -0.8
CC(C)(C)C(=O)NC1(C(F)(F)F)C(=O)Nc2c1c(=O)[nH]c(=O)n2Cc1ccco1 (stereo not drawn) | / | -0.15
Cc1cc(N(C)Cc2ccccc2)n2nc(-c3ccccc3)nc2n1 | 0.46 | 1.3
Cc1cc(OC(C)c2nc(-c3cccnc3)no2)ccc1Cl (stereo not drawn) | 0.28 | 1.3
O=C1N(Cc2ccc(F)cc2Cl)c2ccccc2S(=O)(=O)N1c1ccc(F)cc1 | 0.3 | /
Cc1cc2c(c(=O)o1)C(C1CCCCC1)C(C#N)=C(N)O2 (stereo not drawn) | / | -1.2
COc1ccc(Oc2ccc([N+](=O)[O-])cc2-c2nc(-c3ccccn3)no2)cc1 | / | -1.5
Cc1ccccc1-c1noc2ncnc(N(Cc3ccco3)CC3CCCO3)c12 (stereo not drawn) | 0.2 | /

Entries of single compounds as entered above. Order of screens: HIV TAR-Tat	CDC25B CDK2 inh
Record of `Cc1cc(N(C)Cc2ccccc2)n2nc(-c3ccccc3)nc2n1` : 0.46	1.3
Record of `Cc1cc(OC(C)c2nc(-c3cccnc3)no2)ccc1Cl` (stereo not drawn) : 0.28	1.3

(next part)
Molecule | HIV TAR-Tat | CDC25B CDK2 inh
COc1ccc(NC(=O)Nc2nnc(N3CCCC3)s2)cc1 | 2.1 | -3.3
CN1CCN(c2ccccc2NC(=O)c2nn(C)c3c2COc2ccccc2-3)CC1 | 0.59 | 0.08
CCSc1nnc(NC(=O)Cn2cnc(S(=O)(=O)N3CCCCC3)c2)s1 | -0.15 | /
Cc1noc2[nH]cnc(=S)c12 | / | -1.9
CCOC(=O)c1sc(NC(=O)c2cc3ccccc3o2)c(C(=O)OCC)c1C | / | -1.6
NC(=O)c1ccc[n+](CC(=O)c2ccc3c(c2)Cc2ccccc2-3)c1 | / | -1.1
COc1ccc(CCNc2oc(/C=C/c3ccc(OC)c(OC)c3)nc2C#N)cc1 | -0.83 | -0.4
Cc1ccc2c(c1)sc1nc(C)c(S(=O)(=O)NCc3ccccc3)c(=O)n12 | 0.09 | /
Fc1cc(Br)cc(F)c1NC(=S)N1CCOCC1 | / | -0.79
CCn1c(N)nc2c1c(=O)n(C)c(=O)n2C | / | -0.29
CCCCOC(=O)C1=C(C)NC2=C(C(=O)CCC2)C1c1ccc(C)cc1 (stereo not drawn) | -0.74 | -0.47
CC1(C)CC(=O)C=C(NCCN2CCN(C(=O)Nc3ccc(Cl)cc3)CC2)C1 | -0.03 | -1.1
COc1ccc(-c2nc(-c3ccc(OS(=O)(=O)N(C)C)cc3)no2)cc1OC | / | -0.95
CCOC(=O)c1c(C)c(C(=O)Nc2ccc(Br)cc2F)c(C)n1CC | / | -1.4
COc1ccc(-n2nnnc2/C=C/N2CCN(c3cccc(C(F)(F)F)c3)CC2)cc1 | / | -1.5
O=C(Cn1ncn2nc3c(c2c1=O)CCCC3)Nc1ccccc1F | 1.8 | /
COc1ccc2c(c1)c(CC(=O)O)c(C)n2Cc1ccc(Cl)cc1 | / | -0.73
CCc1ccc(NS(=O)(=O)c2ccc(-c3cnc(C)o3)cc2)cc1 | 0.75 | /
CCCCNC(=O)C1CCN(c2ncnc3c2nc2n3CCCCC2)CC1 | 0.99 | /
Cc1cccc(-c2nc3n(n2)C(c2ccc(O)cc2)C2=C(CC(C)(C)CC2=O)N3)c1 (stereo not drawn) | 0.91 | 0.96
COc1cc(S(=O)(=O)n2nnc3ccccc32)ccc1Cl | -0.37 | -1.5
O=c1[nH]c(CS(=O)(=O)c2ccccc2)nc2scc(-c3ccccc3)c12 | 0.31 | -1.7
Cc1ccc(-n2ccc(=O)c(C(=O)Nc3sc4c(c3C(N)=O)CCCC4)n2)cc1 | 0 | -0.65
Cc1ccc2[nH]cc(C(=O)O)c(=O)c2c1 | 0.91 | -2
COc1ccc2oc(=O)c(-c3csc(Nc4ccccc4C)n3)cc2c1 | / | -0.2
Cc1ccc(N2C(=O)c3cccnc3C2=O)nc1 | 0.21 | -1.8
O=C(NCc1ccco1)c1cc2n(n1)C(C(F)(F)F)CC(c1ccc3c(c1)OCO3)N2 (stereo not drawn) | 0.12 | -0.46
COc1cc(C(O)C(=O)O)ccc1O (stereo not drawn) | / | 0.36
CCCSc1nc(=O)c2c(n1C)NC(=O)CC2c1ccc(OC(C)C)cc1 (stereo not drawn) | 1 | -0.68
COCCCN1C(=O)C(O)=C(C(=O)c2cc3ccccc3o2)C1c1ccc(O)c(OC)c1 (stereo not drawn) | 0.56 | 1.4
CC(C)OCCCN1C(=O)c2[nH]nc(-c3ccccc3O)c2C1c1ccc(C(C)C)cc1 (stereo not drawn) | 2.4 | -1.7
Cc1ccc(S(=O)(=O)NC(=O)Nc2ncccc2OCc2ccc(Cl)c(Cl)c2)cc1 | / | -1.9
O=c1[nH]c2ccc(S(=O)(=O)N3CCOCC3)cc2[nH]c1=O | 0.59 | -1.3
COC(=O)CSc1ncc2c(n1)-c1ccccc1N(C)S2(=O)=O | 0.04 | /
ClC1=C(COc2ccc(Cl)cc2Cl)CSc2ccc(Cl)cc21 | / | -1.3
COc1ccccc1-c1nc(SCc2cc(=O)n3nc(C4CCCCC4)sc3n2)n[nH]1 | 2.2 | /
CCCCn1nnc(NC(=O)c2cccs2)n1 | 0.17 | /
CCOC(=O)C1CCCN(c2ncnc3c2cnn3C)C1 (stereo not drawn) | 0.95 | /
Cc1cc(=O)nc2c3ccccc3n(CC(=O)N3CCC(C)CC3)n12 | 1.6 | -2
O=C(CSc1nc(-c2ccco2)nc2cc(=O)[nH]n12)Nc1ccc(Cl)cc1 | -0.45 | /
Cc1nc2c(C)cccn2c(=O)c1NC(=O)c1ccc(C(C)(C)C)cc1 | 0.58 | /
O=C(CSc1nc2[nH]ncc2c(=O)n1-c1ccc(F)c(Cl)c1)Nc1ccc(F)c(F)c1 | / | -1.4
CCC(CC)C(=O)Nc1ccc2c(c1)C(=O)N(C)C1=NCCN12 | 0.78 | /
CCOC(=O)C1=C(C)NC(C)=C(C(=O)OCC)C1c1ccc(C(C)C)cc1 | / | -0.13
CC(C)CC(C(=O)NCCN1CCOCC1)N1Cc2ccccc2C1=O (stereo not drawn) | -0.18 | /
Cc1cc(OCC(=O)Nc2ccc(OC(F)(F)F)cc2)c2ccccc2n1 | / | -0.18
CC1CCN=C(N)S1 (stereo not drawn) | / | 0.96
CN(C)C(=O)c1ccc2c(c1)N(CC(=O)NC1CCCC1)C(=O)C1CCCCN21 (stereo not drawn) | 0.51 | /
CCc1ccccc1Nc1nc(-c2sc(N)nc2C)cs1 | -7 | 2.6
Cc1ccc2c(c1C)NC(=O)CC2c1cc2c(cc1Br)OCO2 (stereo not drawn) | -1.7 | 1.4
Cc1noc(C)c1S(=O)(=O)N1CCN(c2ccc(Cl)cc2)CC1 | -1.1 | -2.3
CC1CCN(S(=O)(=O)c2ccc3nc(Nc4cccc(F)c4)ccc3c2)CC1 | 1.3 | /
CC1=C(C(=O)OCCc2ccccc2)C(c2cccc(O)c2)NC(=O)N1 (stereo not drawn) | / | 0.45
CCC1(C)Cc2c(sc3nc(SCC(=O)c4ccccc4)nc(N)c23)CO1 (stereo not drawn) | 1.8 | -0.34
N#CC1COc2ccccc2O1 (stereo not drawn) | / | -1.7
Cc1c(C#N)c(NC(=O)c2cccs2)n(Cc2cccs2)c1C | / | -1.2
